Screening results from PubChem.
2A firefly: lowers the firefly signal of an FMDV 2A StopGo reporter | hit rate 0.23% among 120,000 | Potency, µM (titrated, usually from 57.5 µM), without a hit: top-dose signal change, negative = less light | HEK cells with a luciferase reporter of 2A StopGo recoding; active = well fitted falling curve with a large enough effect; inconclusive = small, poorly fitted or top-dose-only effect; inactive = no such curve, though single readings can be large or run the other way; further: nearly all actives have a fitted effect of over 60% in size; overnight with compound
StopGo RLuc: FMDV 2A StopGo reporter, Renilla signal. HEK cells with a luciferase reporter of 2A StopGo recoding. AID 1745857. Potency, µM (titrated, usually from 57.5 µM), without a hit: at the top dose signal change, negative = less light. hit rate 0.32% among 120,000; active means well fitted falling curve with a large enough effect; inconclusive means small, poorly fitted or top-dose-only effect; inactive means no such curve, though single readings can be large or run the other way; further: nearly all actives have a fitted effect of over 55% in size; overnight with compound
Numbers without * were called inactive; u = inconclusive; [ ] = dose if it differs, or a comment. On the % scale 0 is the no-effect control and ±100 the full control effect; potency means the concentration at half of the fitted maximal effect.

compound | 2A firefly | StopGo RLuc
Cc1cc(Br)c(NC(=O)COC(=O)c2ccc(O)cc2)c(Br)c1 | -6% | -7%
CCOc1ccc2nc(N(Cc3cccnc3)C(=O)c3ccco3)sc2c1 | 80%[activator] | 22%
Cc1ccccc1OCC(=O)Nc1c(C(=O)c2ccc3c(c2)OCCO3)oc2ccccc12 | -3% | -11%
COc1ccccc1CNC(=O)C1CCN(S(=O)(=O)c2ccc3[nH]c(=O)ccc3c2)CC1 | 2% | 8%
O=C(c1cccc(F)c1)N1CCN(c2cn[nH]c(=O)c2Cl)CC1 | 53%[activator] | 18%
Cc1ccn2c(Nc3ccccc3C)c(-c3ccncc3)nc2c1 | -10% | 3%
Cc1nnsc1C(=O)Oc1ccc(C#N)cc1 | -9% | -11%
N#Cc1cc(NCC(=O)N2CCNC2=O)ccc1Cl | 10% | -16%
CCCCCC1CCC(c2ccc(-c3ccc(SC(F)F)cc3)cc2)CC1 (stereo not given) | 36%[activator] | 21%
CCC(C)c1ccc2oc(-c3cccc(NC(=O)c4cccnc4)c3)nc2c1 (stereo not given) | 0% | u

Remaining list, next part.
compound | 2A firefly | StopGo RLuc
CCC(=O)N1CCc2cc(Br)cc(S(=O)(=O)CCC(=O)Nc3ccccc3C)c21 | -15% | -2%
CCc1c(C)sc(NC(=O)c2cccc(Cl)c2)c1C#N | 0% | -7%
Cc1cccc(-n2ncnc2-c2cc3c(n(-c4ccccc4)c2=O)CC(C)(C)CC3=O)c1C | -4% | -7%
CCC(C(=O)NC1CCCCC1)n1c(SCc2cccc(C)c2)nc2ccncc21 (stereo not given) | 54%[activator] | -17%
CCOc1ncccc1C(=O)N(Cc1nnc(-c2ccc(Cl)cc2)o1)C(C)C | -4% | -15%
CCC(C)NC(=O)CCc1nnc2n(CCc3ccccc3)c(=O)c3ccccc3n12 (stereo not given) | 76%[activator] | 22%
CCc1ccc(C2C(C(=O)OC)C(=O)CC(C)(O)C2C(=O)OC)cc1 (stereo not given) | 2% | 12%
CC(=O)c1c(C)[nH]c(C(=O)OC(C)C(=O)c2ccc(Cl)cc2)c1C (stereo not given) | u | u
CCn1ccc2cc(S(=O)(=O)N3CCC(C(=O)NCc4cccc(Cl)c4)CC3)ccc21 | -21% | 50%[activator]
CCOc1ccc(-n2c(SCC(=O)N3CCOCC3)nc3c([nH]c4ccccc43)c2=O)cc1 | -2% | -16%

The listing continues.
compound | 2A firefly | StopGo RLuc
Cc1ccc(OCC(=O)Nc2ccccc2C(=O)OCc2cc(=O)n3nc(C4CC4)sc3n2)cc1 | -11% | -13%
CCOc1ccc(CCNC(=O)Cc2ccc(NC(=O)N3CCSc4ncccc43)cc2)cc1 | -16% | -18%
COc1ccc(OC)c(Nc2nc3ccccc3nc2NS(=O)(=O)c2ccc(F)cc2)c1 | 9% | 8%
Cc1cc(C)cc(-n2cnc3cc(C(=O)NCCc4ccccc4)ccc32)c1 | u | u
CC(C)c1ccc(NC(=O)c2cccc3c2C(=O)N(C2CCCCC2)C3)cc1 | -16% | -12%
CC1CCN(S(=O)(=O)c2cc(C(=O)N3CCN(c4cccc(Cl)c4)CC3)n(C)c2)CC1 | 2% | -6%
CCc1nnc(NC(=O)Cc2coc3cc(C)c(C(C)C)cc23)s1 | 36%[activator] | 27%
CCOCCCNC(=O)c1ccc2nc(CCc3ccccc3)oc2c1 | 44%[activator] | 1%
CCCc1cc(C(=O)NC2CC2)cs1 | 50%[activator] | -6%
O=C(C1CC1)N1CCc2cc(Br)cc(S(=O)(=O)Nc3ccc(C(F)(F)F)cc3)c21 | 2% | 314%[activator]

Continued:
compound | 2A firefly | StopGo RLuc
Cc1ccc(Cl)cc1N1CCN(C(=O)c2cccn2-c2nnc(N3CCCC3)s2)CC1 | u | -17%
CCOC(=O)c1cc(-c2ccccc2)n(CC(=O)Nc2ccc(CC)cc2)c1C | 36%[activator] | 3%
CCCCNc1nc2c(c(=O)n(Cc3ccc(Br)cc3)c(=O)n2C)n1C | u | -22%
COc1cccc(NC(=O)CSc2nnc(COc3ccc(Cl)cc3)o2)c1 | -12% | -3%
Cc1ccc(OCC(=O)Nc2ccc3oc(C)nc3c2)c(C)c1 | 114%[activator] | 30%[activator]
COC(=O)c1cc2occc2n1Cc1nc(-c2ccccc2)oc1C | 11% | 11%
Cn1nc(C(=O)N2CCN(c3cccc(Cl)c3)CC2)c2c1-c1ccccc1S(=O)(=O)C2 | -20% | -7%
O=C(CCc1ncc(-c2ccccc2Cl)o1)NCC1CCCO1 (stereo not given) | 43%[activator] | 23%
CC(C)(C)c1ccc(CC/C=N/O)cc1 | 62%[activator] | -6%
CC(C)CN(CCNC(=O)c1cn(C)c2ccc(S(=O)(=O)N3CCOCC3)cc2c1=O)CC(C)C | -18% | -7%

More compounds.
compound | 2A firefly | StopGo RLuc
CCCN1CCC(NC(=O)COc2ccc(F)cc2)CC1 | 39%[activator] | -7%
Cc1ccc(SC(C)C(=O)Nc2c(C)cc(C)cc2C)cc1 (stereo not given) | -2% | 10%
COc1ccc(OC)c(NC(=O)Cc2coc3ccc(C(C)C)cc23)c1 | -22% | 84%[activator]
NC(=O)CSc1oc(-c2ccco2)nc1S(=O)(=O)c1ccc(Cl)cc1 | -12% | 22%
O=c1[nH]nc(-c2ccc(N3CCCCC3)c([N+](=O)[O-])c2)c2ccccc12 | 37%[activator] | 8%
COc1cc(OC)c(NC(=O)C(C)n2nc(-c3ccc(C)c(C)c3)ccc2=O)cc1Cl (stereo not given) | -12% | -4%
COc1ccc(-c2nc(Cn3c(SCc4cccc(C(F)(F)F)c4)nc4cccnc43)c(C)o2)cc1OC | -19% | -8%
COc1ccccc1NC(=O)c1cc2c([nH]c1=O)CC(C)(C)CC2=O | 14% | -5%
COc1ccc(CNC(=O)Cc2csc3nc(-c4ccc(C)cc4)cn23)cc1 | 45%[activator] | 24%
COCCn1cnnc1SCC(=O)c1cc(F)ccc1F | 26% | 96%[activator]

(next part)
compound | 2A firefly | StopGo RLuc
COc1ccc2c(c1)cc(C(=O)Nc1ccccc1Cl)n2C | 100%[activator] | 42%[activator]
O=C(CCc1ccccc1)Nc1ccc(C2(c3ccc(NC(=O)CCc4ccccc4)cc3)CCCCC2)cc1 | -15% | 1%
O=C(c1cc(=O)c2ccccc2o1)N1CCN(Cc2ccccc2)CC1 | 7% | -8%
O=C(Nc1ccnn1C1CCCCC1)C1(c2ccccc2)CC1 | -7% | -3%
O=C1N(Cc2ccccc2F)CCCN1c1ccc(C(=O)N2CCc3ccccc32)cc1 | u | u
CCOc1ccc(NC(=O)Cn2c(-n3nc(C)cc3C)nc(CC)cc2=O)cc1 | -8% | -7%
CN(C(=O)CCc1ncc(-c2ccccc2)o1)C1CC1 | 0% | 8%
CCCCc1nc(N2CCCCC2)c(C#N)c2c1CCCC2 | 8% | 9%
O=C(OCn1nnc2ccccc2c1=O)c1ccc(S(=O)(=O)N2CCCc3ccccc32)cc1 | -3% | -9%
CS(=O)(=O)Oc1cc2oc(=O)c3c(c2cc1Cl)CCCC3 | 35%[activator] | 2%

A portion taken from the entries so far, for reference:
compound | 2A firefly | StopGo RLuc
Cn1nc(C(=O)N2CCN(c3cccc(Cl)c3)CC2)c2c1-c1ccccc1S(=O)(=O)C2 | -20% | -7%
O=C(CCc1ncc(-c2ccccc2Cl)o1)NCC1CCCO1 (stereo not given) | 43%[activator] | 23%
CC(C)(C)c1ccc(CC/C=N/O)cc1 | 62%[activator] | -6%
CC(C)CN(CCNC(=O)c1cn(C)c2ccc(S(=O)(=O)N3CCOCC3)cc2c1=O)CC(C)C | -18% | -7%
CCCN1CCC(NC(=O)COc2ccc(F)cc2)CC1 | 39%[activator] | -7%
Cc1ccc(SC(C)C(=O)Nc2c(C)cc(C)cc2C)cc1 (stereo not given) | -2% | 10%
COc1ccc(OC)c(NC(=O)Cc2coc3ccc(C(C)C)cc23)c1 | -22% | 84%[activator]
NC(=O)CSc1oc(-c2ccco2)nc1S(=O)(=O)c1ccc(Cl)cc1 | -12% | 22%
O=c1[nH]nc(-c2ccc(N3CCCCC3)c([N+](=O)[O-])c2)c2ccccc12 | 37%[activator] | 8%
COc1cc(OC)c(NC(=O)C(C)n2nc(-c3ccc(C)c(C)c3)ccc2=O)cc1Cl (stereo not given) | -12% | -4%
COc1ccc(-c2nc(Cn3c(SCc4cccc(C(F)(F)F)c4)nc4cccnc43)c(C)o2)cc1OC | -19% | -8%
COc1ccccc1NC(=O)c1cc2c([nH]c1=O)CC(C)(C)CC2=O | 14% | -5%
COc1ccc(CNC(=O)Cc2csc3nc(-c4ccc(C)cc4)cn23)cc1 | 45%[activator] | 24%
COCCn1cnnc1SCC(=O)c1cc(F)ccc1F | 26% | 96%[activator]
COc1ccc2c(c1)cc(C(=O)Nc1ccccc1Cl)n2C | 100%[activator] | 42%[activator]
O=C(CCc1ccccc1)Nc1ccc(C2(c3ccc(NC(=O)CCc4ccccc4)cc3)CCCCC2)cc1 | -15% | 1%
O=C(c1cc(=O)c2ccccc2o1)N1CCN(Cc2ccccc2)CC1 | 7% | -8%
O=C(Nc1ccnn1C1CCCCC1)C1(c2ccccc2)CC1 | -7% | -3%
O=C1N(Cc2ccccc2F)CCCN1c1ccc(C(=O)N2CCc3ccccc32)cc1 | u | u
CCOc1ccc(NC(=O)Cn2c(-n3nc(C)cc3C)nc(CC)cc2=O)cc1 | -8% | -7%
CN(C(=O)CCc1ncc(-c2ccccc2)o1)C1CC1 | 0% | 8%

The list goes on:
compound | 2A firefly | StopGo RLuc
S=C(NCCc1ccc(Cl)cc1Cl)NC1CCCCC1 | -23% | 0%
CCCN(CCC)C(=O)CSc1nnc2cc(C)c3ccccc3n12 | -10% | -1%
Cc1oc(-c2nc(C#N)c(NCc3ccccc3Cl)o2)cc1S(=O)(=O)N(C)C | -17% | 38%[activator]
COc1ccc(C(=O)c2oc3ccccc3c2NC(=O)c2cccc(OC)c2)cc1 | 11% | 10%
CCSc1ncc(Cl)c(C(=O)Nc2ccc(S(=O)(=O)Nc3ncccn3)cc2)n1 | -5% | -4%
Cc1cccc(CNC(=O)Cn2nc(C)c3nn(-c4ccc(Cl)cc4)c(C)c3c2=O)c1 | -2% | -5%
CC(OC(=O)c1ccccc1-n1cnnn1)C(=O)Nc1ccc(N2CCOCC2)cc1 (stereo not given) | 22% | -6%
CC(CCc1ccco1)NC(=O)c1ccccc1F (stereo not given) | 63%[activator] | 1%
CCCCC(=O)N/N=C(\C)c1ccc(C)c(C)c1 | 42%[activator] | 13%
Cn1nc(C(=O)Nc2ccc3c(c2)OCCO3)c2ccccc2c1=O | 139%[activator] | 31%[activator]

Other structures follow:
compound | 2A firefly | StopGo RLuc
Cn1c(=O)c2c(ncn2CC(=O)NC2CC2)n(C)c1=O | 7% | 0%
N#Cc1ccc(NC(=O)c2csc3c2CCCC3)cc1 | 175%[activator] | 1%
O=C(C1CC1)N1CCc2cc(Br)cc(S(=O)(=O)N3CCN(c4cccc(C(F)(F)F)c4)CC3)c21 | -4% | 9%
CC(OC(=O)c1cc2ccccc2[nH]1)C(=O)N(C(C)C)C(C)C (stereo not given) | 5% | -2%
COc1ccc(N(CC(=O)Nc2cc(Cl)ccc2C)S(=O)(=O)c2c(C)noc2C)cc1 | -34% | 8%
CCOc1ccc(C(=O)NCCc2csc(-c3ccc(C(F)(F)F)cc3)n2)cc1OCC | -15% | -6%
CC(C)(C)c1ccc(C(=O)NNC(=O)C2CC2)cc1 | 79%[activator] | 3%
CCOc1ccc(NC(=O)c2ccc(CN3C(=O)C(C)=C(c4ccc(C)cc4)S3(=O)=O)cc2)cc1 | -4% | -15%
COc1ccc(NC(=O)CSc2nnc(NC(=O)Nc3ccccc3)s2)c(OC)c1 | -11% | 4%
O=C(Cn1c(=O)c2c(ncn2Cc2ccccc2)n(Cc2ccccc2)c1=O)NCc1ccco1 | -2% | -7%

Further structures.
compound | 2A firefly | StopGo RLuc
COc1ccc(CC(=O)NCc2ccc3c(c2)CCN3C(C)=O)cc1 | 5% | 8%
N#Cc1c(N)n[nH]c1CCCNC(=O)c1cn(Cc2ccccc2)nc1-c1cccnc1 | 22% | 0%
Cc1ccc(COC(=O)Cc2c[nH]c3ccccc23)cc1 | 0% | 0%
CCc1cccc(CC)c1NC(=O)CCS(=O)(=O)c1ccc(Br)cc1 | 0% | -1%
O=C(c1ccccc1Cl)N1c2ncnn2C2(CCCCC2)[C@@H]2CCCC[C@@H]21 | 0% | -5%
c1csc(CNCC2CCCCC2)c1 | u | u
CC(C)CCNC(=O)NC(=O)CCl | -16% | u
CCN1CCC2(CC1)Oc1ccccc1C1CC(c3ccccc3Cl)=NN12 (stereo not given) | 233%[activator] | 47%[activator]
O=C(O)Cc1ccc(F)cc1Cl | 9% | 7%
O=C(Nc1ccccc1F)Nc1ccccc1SCc1cc(=O)n2ccccc2n1 | 131%[activator] | 30%

In a second layout: results already given
Cc1ccc(OCC(=O)Nc2ccccc2C(=O)OCc2cc(=O)n3nc(C4CC4)sc3n2)cc1
  2A firefly = -11% | StopGo RLuc = -13%
CCC(C)NC(=O)CCc1nnc2n(CCc3ccccc3)c(=O)c3ccccc3n12 (stereo not given)
  2A firefly = 76%[activator] | StopGo RLuc = 22%

(more compounds)
compound | 2A firefly | StopGo RLuc
CCOc1ccc(N(Cc2cc3ccccc3[nH]c2=O)C(=O)C(C)(C)C)cc1 | 5% | 17%
CC(=O)NC(C)(C)C(=O)NCCC(c1ccccc1)c1ccccc1 | -13% | 6%
Cc1ccc2oc(-c3cc(NC(=O)/C=C/c4ccco4)ccc3Cl)nc2c1 | 37%[activator] | -12%
NC(=S)N/N=C1\C2C3CC4C1C1C2CC3C41 (stereo not given) | 5% | 13%
CCN(CC)C(=O)c1ccc2oc(CN3CCN(C(=O)Nc4ccc(C)c(F)c4)CC3)nc2c1 | 119%[activator] | 7%

These rows are one share of the data; rates above refer to the full screens.
